# FGF22 binding – binders of human FGF22 protein, primary screen, FGF22 synaptogenesis inhibitor project, biophysical, thermal shift, single point; recombinant FGF22 thermal shift, SYPRO orange fluorescence; percent of sucrose octasulfate shift, DMSO zero; calls only at 9.99 µM; 1.5% of 340,000 active;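 active = melting point raised past a set limit in the mean and every replicate; inconclusive = no clear call; three in four hits are not shown here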
# Target sequence (Q9HCT0 whole entry, looked up): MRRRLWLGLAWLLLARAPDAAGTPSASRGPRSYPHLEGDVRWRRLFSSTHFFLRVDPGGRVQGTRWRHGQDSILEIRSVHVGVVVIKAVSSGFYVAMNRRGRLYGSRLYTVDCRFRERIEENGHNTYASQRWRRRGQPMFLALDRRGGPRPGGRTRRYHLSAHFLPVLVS
# T cruzi repl – inhibitors of intracellular T. cruzi growth, primary screen, luminescence, NIH3T3 host cells; T. cruzi beta-gal in NIH3T3, 90 h; inhibition, % (concentration not given with the values); 1.4% of 300,000 active; AID 1885, 2009;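 active = mean inhibition across valid replicates above about 55%, limit read from the data; inconclusive = mean below that limit but half or more replicates reach it; inactive = mean below it, under half of replicates reach it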;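 note: signal also drops with host cell toxicity which is not excluded here; 0% = plate median of DMSO wells and 100% = zero luminescence signal; higher percent means less beta-gal luminescence so fewer parasites; stock transfer was 50 nL into about 50 µL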
# Beta cell apopt – inhibitors of cytokine-induced beta cell apoptosis, primary screen, luminescence; protection from apoptosis, % (no concentration beside the values); INS-1E cytokine-induced death, ATP luminescence, 48 h; percent of positive-control rescue, neutral wells zero; 0.8% of 300,000 active;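 active = all replicates at 75% or more, or half of them and the mean; inconclusive = half reach 75% but not the mean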;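 note: 0% = cytokine-treated negative control wells and 100% = positive control rescue; higher means more ATP so stronger rescue from cytokine killing; wells of about 40 µL received 100 nL stock; the first replicate is given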
# Ecoli rRNA inh – reduced GFP signal of wild-type E. coli, primary screen, bacterial rRNA inhibitor project, GFP/RFP fluorescence, OD600, single point; GFP signal change (wild-type ribosome), % (no concentration beside the values); E. coli WT GFP vs humanized-ribosome RFP mutants, 24 h; hits give low values; DMSO median 0, no signal -100; 1.6% of 350,000 active;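 active = significant combined selectivity score with lowered wild-type GFP, culture density cut under 30%, mutant RFP and density less affected; inactive = any of these conditions unmet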; note: one replicate is shown; some compounds called inactive have numbers as strong as hits
# RanGTP-Impb inh – inhibitors of RanGTP-importin-beta interaction, primary screen, biochemical, FRET, CFP-Ran, YFP-importin-beta, homogeneous; cell-free CFP-Ran/YFP-importin-beta FRET ratio; inhibition, % (concentration not given with the values); 1.1% of 300,000 active; AID 2216, 2009;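 active = most replicates above 15%; inconclusive = exactly half above 15%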;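 note: 0% = DMSO wells and 100% = Ran loaded with GDP instead of GTP; wells of about 40 µL received 100 nL stock; the first replicate is given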
# Calb FLC – C. albicans growth inhibition with fluconazole, primary screen, CaCi-2 strain, Alamar Blue fluorescence | C. albicans CaCi-2 (fluconazole-resistant clinical isolate) + fluconazole, 48 h | growth inhibition, % (concentration not given with the values) | 0.57% of 300,000 active | AID 1979, 2009;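 active = most replicates above 75%; inconclusive = exactly half above 75%; inactive = most below 75%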;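 note: all wells also contain fluconazole at 8 µg/ml as a sub-toxic cotreatment; 0% = median of DMSO wells and 100% = median of geldanamycin control wells; wells of about 8 µL received 7.5 nL stock; the first replicate is given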
# ALR inh – inhibitors of human ALR sulfhydryl oxidase, primary screen, biochemical, H2O2 detection, HRP-luminol luminescence, single point; purified ALR, DTT oxidation; inhibition, % (concentration not given with the values); 3.8% of 290,000 active; AID 485317, 2010;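 active = mean and each replicate at 75% or more; inconclusive = only one of the two met; inactive = neither met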;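 note: stock transfer was 7.5 nL into about 7.5 µL; 0% = neutral wells and 100% = wells with inactivated enzyme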
# Target sequence (P55789 whole entry, looked up): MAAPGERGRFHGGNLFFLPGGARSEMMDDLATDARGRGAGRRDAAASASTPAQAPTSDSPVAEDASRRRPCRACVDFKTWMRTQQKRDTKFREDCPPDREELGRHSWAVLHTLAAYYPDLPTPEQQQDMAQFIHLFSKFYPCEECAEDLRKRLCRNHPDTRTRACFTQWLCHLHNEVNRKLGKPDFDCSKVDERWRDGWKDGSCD
# AF4-AF9 inh – inhibitors of AF4 peptide binding to AF9, primary screen, biochemical, AlphaScreen, biotin-AF4 peptide, FLAG-AF9, single point; Protein AF-9 (Homo sapiens), P42568; AID 651704, 2012; 0.47% of 350,000 active; inhibition, % at 10 µM;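 active = every replicate reaching a set inhibition limit, whatever the replicate mean, cut at about 25% in these data; inconclusive = mean inhibition reaches that limit but some replicates miss it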;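 note: 0% = plate neutral control median and 100% = total signal loss; the record names both 10 and 1 µM as test concentration; the first replicate is given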
# Target sequence (P42568 whole entry, looked up): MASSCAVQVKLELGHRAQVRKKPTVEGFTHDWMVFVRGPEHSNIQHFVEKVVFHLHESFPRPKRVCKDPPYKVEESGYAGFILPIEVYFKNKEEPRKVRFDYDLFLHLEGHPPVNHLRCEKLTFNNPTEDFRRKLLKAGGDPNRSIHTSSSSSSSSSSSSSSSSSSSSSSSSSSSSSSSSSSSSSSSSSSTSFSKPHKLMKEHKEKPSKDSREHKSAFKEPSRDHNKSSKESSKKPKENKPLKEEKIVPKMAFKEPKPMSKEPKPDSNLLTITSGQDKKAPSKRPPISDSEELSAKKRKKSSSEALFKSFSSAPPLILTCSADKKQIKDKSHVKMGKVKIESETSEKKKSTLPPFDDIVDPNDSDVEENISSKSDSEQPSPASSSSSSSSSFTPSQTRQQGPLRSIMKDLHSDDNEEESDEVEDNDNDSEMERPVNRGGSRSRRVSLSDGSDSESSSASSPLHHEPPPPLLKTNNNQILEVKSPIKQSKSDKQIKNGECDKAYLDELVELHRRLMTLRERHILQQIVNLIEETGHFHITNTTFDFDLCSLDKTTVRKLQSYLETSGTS
# Ecoli rRNA inh OD600 – further read-out of Ecoli rRNA inh, marked with its call; OD600 change, %; measured here: OD600 growth;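 optical density of the mix in the first replicate; 0 = DMSO median and -100 = no signal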
# Ecoli rRNA inh RFP – further read-out of Ecoli rRNA inh, marked with its call; RFP signal change, %; measured here: RFP humanized mutant strains;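 first replicate; 0 = DMSO median and -100 = no signal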
# Numbers without * were called inactive; i = inactive; u = inconclusive; x = no result given. An excerpt. The share of hits here may be higher or lower than overall.
# Below each compound – Calb FLC	FGF22 binding	Ecoli rRNA inh OD600	ALR inh	Beta cell apopt	AF4-AF9 inh	T cruzi repl	Ecoli rRNA inh	Ecoli rRNA inh RFP	RanGTP-Impb inh
Cc1csc(SC(C)C(=O)Nc2ccc(Cl)cn2)n1 (stereo not given)
→ -6	x	x	-10	-11	x	1	x	x	-3.0
CCCNC(=O)CSc1nc(-c2cccs2)cc(C(F)(F)F)n1
→ -5	x	x	-1	0	x	3	x	x	3.1
COC(=O)CSc1nc(C)c2ccc(OC)cc2n1
→ -3	x	x	-13	-6	x	-3	x	x	7.2
CC(C)C(=O)Nc1cccc(C(=O)Nc2nccs2)c1
→ 3	x	x	-2	x	x	-23	x	x	-0.3
O=C(/C=C/c1ccccc1)Nc1cccc(S(=O)(=O)Nc2ccccc2F)c1
→ -6	i	12	3	1	2.5	12	-4	9.2	0.1
CC(=O)c1ccc(OC(=O)CCN2c3ccccc3Sc3ccccc32)cc1
→ -7	x	x	52	0	x	-15	x	x	-3.5
O=C(Nc1ccc(S(=O)(=O)N2CCOCC2)cc1)c1nn(-c2ccc(F)cc2)ccc1=O
→ -1	i	4	-2	-5	0.3	-7	-1	-3.0	-5.0
Cc1nc(-c2ccc(F)cc2)c(CC(=O)N2CCN(S(=O)(=O)c3ccccc3Br)CC2)s1
→ -11	i	-19	-4	7	u	15	-9	-2.6	-0.8
COc1ccc(Nc2nnc(SC(C(=O)Nc3cc(C)ccc3C)c3ccccc3)s2)cc1 (stereo not given)
→ u	i	-4	-17	15	-3.9	45	-1	-1.4	-1.6
COc1ccccc1Nc1nc(NCCC(C)C)nc(N)c1[N+](=O)[O-]
→ 1	i	3	-4	-11	-0.4	-22	0	-1.2	-2.1
C=CCN1c2ccccc2[C@]23C[C@@H](C(=O)OC)N(C(=O)NCCC)C2=NC(C(=O)OC)=C(C(=O)OC)[C@H]13
→ 1	i	5	x	5	2.3	43	1	-9.5	3.7
CC(=O)c1ccc(N=Nc2ccc(C)cc2)cc1
→ -15	i	8	x	x	11	0	5	-4.3	u
C/C(=N\NC(=O)COc1ccccc1F)c1cc2ccccc2o1
→ 0	x	x	-1	-4	x	17	x	x	2.1
Nc1nc(CSc2ncccn2)nc(Nc2ccccc2)n1
→ -5	x	x	-1	-5	x	-13	x	x	3.2
CCOc1ccc(NC(=O)Nc2cccc(C(=O)O)c2)cc1
→ u	i	8	-9	0	-1.8	-7	9	-1.7	-0.2
Cc1cccc(-c2nn(-c3ccccc3)cc2C(=O)N2CCN(C3CCS(=O)(=O)C3)CC2)c1 (stereo not given)
→ x	i	4	-1	-1	2.3	x	1	0.3	x
C=CCN(c1ccc(C(=O)N2CCCC2)cc1)S(C)(=O)=O
→ -24	x	x	-5	-5	x	-5	x	x	2.6
c1ccc(CNc2ncnc3sc4c(c23)CCCC4)nc1
→ 4	i	-36	96*	-3	-1.8	9	-28	-4.1	-0.4
O=C(Nc1ccc2c(c1)OCCO2)c1ccc(NC(=O)C2CCCO2)cc1 (stereo not given)
→ 8	x	x	-5	0	x	1	x	x	-3.1
O=[N+]([O-])c1ccc2oc(-c3ccccc3)nc2c1
→ -7	i	25	3	4	3.0	5	16	10	-0.4
O=C(NCCc1ccccc1)C(=O)Nc1nccs1
→ -11	x	x	-10	-7	x	-18	x	x	1.8
O=C(OCC(F)(F)F)c1cccc(COc2ccc3ccccc3c2)c1
→ 5	x	x	-15	-2	x	-24	x	x	-0.8
Cc1ccc(N=C2NC(=O)/C(=C/c3cccnc3)S2)c(C)c1
→ 2	i	10	3	-5	x	6	1	-2.8	0.2
CCOc1ccc(NCc2cccn2-c2nnc(N3CCC(C(=O)NCCCN4C(C)CCCC4C)CC3)s2)cc1 (stereo not given)
→ 1	i	-5	99*	-8	51*	44	2	3.9	1.1
COc1cccc(NC(=O)CN(C)C(C)C(=O)NC(=O)NC2CCCCC2)c1 (stereo not given)
→ x	i	-8	-1	-2	-7.1	x	3	0.4	x
O=C1N/C(=N/N=C/c2ccc(O)cc2)SC1Cc1ccccc1 (stereo not given)
→ 16	i	-1	x	-7	-4.0	-11	6	-0.1	10
CN(CCOC(=O)c1ccc2c(c1)OCCO2)Cc1ccccc1
→ 4	x	x	-14	-5	x	-22	x	x	1.9
CC(C)CCNC(=S)NC1CCCC1
→ -14	x	x	-14	7	x	-14	x	x	0.9
COc1cc(C)nc(OCCNC(=O)COc2ccc(Cl)cc2Cl)n1
→ 3	x	x	-7	-1	x	-3	x	x	-0.4
O=C(Oc1ccccc1OC(=O)N1CCOCC1)N1CCOCC1
→ -4	x	x	-1	2	x	-21	x	x	-1.9

# 5 compounds drawn at random from the list so far:
# Below each compound – Calb FLC	FGF22 binding	Ecoli rRNA inh OD600	ALR inh	Beta cell apopt	AF4-AF9 inh	T cruzi repl	Ecoli rRNA inh	Ecoli rRNA inh RFP	RanGTP-Impb inh
c1ccc(CNc2ncnc3sc4c(c23)CCCC4)nc1
→ 4	i	-36	96*	-3	-1.8	9	-28	-4.1	-0.4
CN(CCOC(=O)c1ccc2c(c1)OCCO2)Cc1ccccc1
→ 4	x	x	-14	-5	x	-22	x	x	1.9
Cc1cccc(-c2nn(-c3ccccc3)cc2C(=O)N2CCN(C3CCS(=O)(=O)C3)CC2)c1 (stereo not given)
→ x	i	4	-1	-1	2.3	x	1	0.3	x
O=C(OCC(F)(F)F)c1cccc(COc2ccc3ccccc3c2)c1
→ 5	x	x	-15	-2	x	-24	x	x	-0.8
O=C1N/C(=N/N=C/c2ccc(O)cc2)SC1Cc1ccccc1 (stereo not given)
→ 16	i	-1	x	-7	-4.0	-11	6	-0.1	10

# Next section:
# Below each compound – Calb FLC	FGF22 binding	Ecoli rRNA inh OD600	ALR inh	Beta cell apopt	AF4-AF9 inh	T cruzi repl	Ecoli rRNA inh	Ecoli rRNA inh RFP	RanGTP-Impb inh
O=C(CSc1ncccc1-c1nc2ccccc2[nH]1)N1CCc2ccccc21
→ 1	i	8	-1	9	2.9	4	6	-6.7	-4.0
O=C(c1ccco1)N1CCN(Cc2cc(=O)oc3cc(O)ccc23)CC1
→ x	i	x	1	1	-2.1	x	x	x	x
Cc1onc(-c2c(Cl)cccc2Cl)c1C(=O)c1c[nH]c(C(=O)NC2CC2)c1
→ -24	x	x	13	0	x	-15	x	x	-3.1
O=C(CSc1nnc2ccc(-c3ccncc3)nn12)Nc1ccc(F)cc1
→ 4	i	9	x	0	-0.3	-5	4	3.2	-1.9
Cc1nc(SCC(=O)NCC2CCCO2)[nH]c(=O)c1C (stereo not given)
→ -3	i	6	1	x	-15	0	2	-2.0	3.9
CC(C)CN(CC(C)C)C(=O)c1cc2c(=O)n3ccccc3nc2s1
→ 13	i	-37	-6	8	-39	15	-31	-1.9	0.2
Cc1cccc(NC(=O)CCSc2ccccn2)c1
→ -24	x	x	-4	-3	x	2	x	x	-0.5
COc1cc(-c2cc(=O)c3c(O)c(OC)c(OC)c(OC)c3o2)cc(OC)c1OC
→ -13	i	14	-22	x	0.0	3	3	-3.0	-0.8
CN(Cc1ccccc1)C(=O)CCNS(=O)(=O)c1ccc2c(c1)oc(=O)n2C
→ 10	x	x	-3	1	x	0	x	x	-3.2
COCCN(C(=O)c1ccc(C#N)cc1)c1c(N)n(Cc2ccccc2)c(=O)[nH]c1=O
→ x	i	x	-6	5	0.2	x	x	x	x
CC(Oc1ccc2c3c(c(=O)oc2c1)CCCC3)C(=O)NCc1cccnc1 (stereo not given)
→ 18	i	1	-7	-6	2.1	2	-2	0.9	1.1
COCC(=O)N1CCC(Oc2ccc(C(=O)N3CCN(C)C[C@@H]3C(C)C)cc2)CC1
→ -5	i	12	x	x	0.1	-2	12	3.8	-5.0
CCN(CC)CCNC(=O)Cn1nc(Cc2ccccc2)c2ccccc2c1=O
→ -4	x	x	-5	4	x	-26	x	x	0.7
Cc1csc(NC(=O)CCn2c(=O)sc3ccccc32)n1
→ -13	x	x	4	4	x	-2	x	x	-1.0
C=CCn1c(-c2cccn(Cc3ccc(Cl)cc3)c2=O)n[nH]c1=S
→ 0	x	x	13	-10	x	-6	x	x	-4.1
Cn1c(N)c(C(=O)COC(=O)Cc2ccc(Cl)c(Cl)c2)c(=O)n(C)c1=O
→ x	i	-27*	x	-4	-1.3	x	-35*	-6.6*	x
Cc1c(NC2=NC3(CCCCC3)Cc3ccccc32)c(=O)n(C)n1-c1ccccc1
→ -36	x	x	-24	1	x	5	x	x	-1.5
CCc1ccc(-c2nc(CSCC(=O)N3CCN(c4ncccn4)CC3)c(C)o2)cc1
→ -6	i	-12	97*	8	-10.0	-8	-8	-1.7	-4.5
C=CCC(NCc1ccco1)c1ccc(OC)cc1 (stereo not given)
→ -14	x	x	2	2	x	-9	x	x	2.5
CCCCNc1nnc(CCn2nc(C)c(Br)c2C)s1
→ 4	x	x	-4	x	x	-6	x	x	1.2
Cc1ccc(C(=O)CN2C(=O)NC3(CCCCC3C)C2=O)s1 (stereo not given)
→ x	i	2	x	-2	-1.9	x	2	-1.4	x
O=C(CCS(=O)(=O)c1cccc2nonc12)N1CCCc2ccccc21
→ 7	x	x	-2	x	x	-6	x	x	3.0
CCn1cc(C(=O)NCc2cccnc2)c2cc(OC)c(OC)cc2c1=O
→ -15	x	x	-4	4	x	-7	x	x	2.1
Nc1ccc(S(=O)(=O)NC(Cc2ccccc2)C(=O)O)cc1 (stereo not given)
→ 1	i	2	-14	-10	0.4	-4	-9	-6.2	u
O=C(NCc1ccncc1)Nc1ccccc1F
→ 23	i	8	-28	1	-0.5	-9	10	3.3	0.1
O=C(NCCCCNC(=O)c1ccco1)c1ccco1
→ -8	x	x	x	-7	x	-9	x	x	-0.8
CC1(C)CC(c2nc(-c3ccc(Br)cc3)cs2)CCS1 (stereo not given)
→ -4	i	8	-23	-2	-5.4	13	11	-1.4	2.1
NC(=O)c1c(NC(=O)C2CCCO2)sc2c1CCC2 (stereo not given)
→ 20	x	x	8	-3	x	-1	x	x	6.4
CSc1nc(C)c(Cc2c(F)cccc2Cl)c(=O)[nH]1
→ 14	i	9	-14	-6	0.2	2	20	-1.1	2.9
COc1ccccc1Nc1nnc(SCC(=O)N2CC(=O)Nc3ccccc32)s1
→ -2	x	x	x	-6	x	-1	x	x	1.8
CN(O)C(=O)Nc1ccc([N+](=O)[O-])cc1
→ 16	x	10	18	8	-2.0	2	6	9.6	-1.4
O=C(O)CC(Cc1ccccc1)c1ccc2c(c1)OCO2 (stereo not given)
→ 9	x	x	-5	1	x	-6	x	x	-4.5
